miR-21 FLuc – raises the signal of a miR-21 reporter. HeLa miR-21 FLuc reporter, luciferase, 48 h. Potency, µM (top dose mostly 38.3 µM), without a hit: at the highest dose reporter change, positive = more light. 340,000 tested, under 10 active; active = well fitted rising curve with a large enough effect; inconclusive = small, poorly fitted or top-dose-only effect; inactive = no such curve, though single readings can be large or run the other way;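 further: % of control where 0% means no effect; miR-21 action dims this reporter so a rising signal means less miR-21 action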
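HeLa cells stably expressing CMV-driven firefly luciferase with a downstream miR-21 binding sequence, endogenously expressing miR-21, were treated with titrations (up to about 40uM final) for 48 hours at 37 degree Celsius. Luciferase luminescence was read after lysis.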
Rango complex inh – prevents formation of the Rango-importin beta complex | Q14974 | Rango CFP/YFP FRET sensor + importin beta, 45 min | Potency, µM (series often up to 92.2 µM), without a hit: top-dose inhibition of complex formation | hit rate 0.031% among 340,000 | AID 540263; active = rising FRET ratio curve, often small or poorly fitted; inconclusive = mostly compound fluorescence or quenching in the first reads; inactive = flat curves in all reads;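 further: potency means the concentration at half of the fitted maximal effect; 0% = DMSO wells and 100% = buffer wells lacking importin beta; nearly all actives have a fitted effect of over 15% in size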
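FRET biosensor (snurportin 1 IBB flanked by EYFP and cerulean), 50 nM, with compound 5 min, then 0.125 microM importin beta in PBS, 1 mM DTT, 0.02% Tween-20, 0.1% BSA. CFP/YFP ratio read after 45 min at room temperature; pre-read flags interference.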
Rango dissoc inh – inhibitors of RanGTP-induced Rango-importin beta complex dissociation; Biochemical FRET Rango-importin beta, RanGTP-induced dissociation; O95149+P62826; Potency, µM (series often up to 46.1 µM), without a hit: at the highest dose activity change, negative = inhibition; hit rate 0.071% among 340,000; active means falling FRET ratio curve, often poorly fitted, with flat reads before Ran was added; inconclusive means other falling curves, or compound fluorescence or quenching; inactive means flat or rising ratio curve;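 further: potency means the concentration at half of the fitted maximal effect; % of control where 0% means no effect; nearly all actives have a fitted effect of over 45% in size; -100% = wells without RanGTP and RCC1; the record marks most hits as doubtful in a second field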
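Recombinant Rango FRET biosensor (EYFP–snurportin 1 IBB–cerulean CFP10) at 0.1 uM premixed with 0.25 uM importin beta in PBS, 1 mM DTT, 0.02% Tween-20, 0.1% BSA. Compound added 5 min; RanGTP-RCC1 (0.6 uM Ran, 2 mM GTP, 0.2 uM RCC1) then triggers release, read at 45 min.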
GLA inh pH 4.5 – alpha-galactosidase A (human) inhibition, pH 4.5; P06280; purified enzyme, 4-MU-alpha-Gal fluorescence, pH 4.5; activity change, negative = inhibition, % at 105 µM; 230,000 tested, under 10 active; AID 1467; inconclusive = small, poorly fitted or top-dose-only inhibition, or a rising curve; inactive = flat fitted curve, though single readings scatter; no compound was filed as active;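 further: 0% = full activity with enzyme and -100% = basal without enzyme; dose as in the result columns while the protocol names 77 µM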
Target sequence (P06280 whole entry, looked up): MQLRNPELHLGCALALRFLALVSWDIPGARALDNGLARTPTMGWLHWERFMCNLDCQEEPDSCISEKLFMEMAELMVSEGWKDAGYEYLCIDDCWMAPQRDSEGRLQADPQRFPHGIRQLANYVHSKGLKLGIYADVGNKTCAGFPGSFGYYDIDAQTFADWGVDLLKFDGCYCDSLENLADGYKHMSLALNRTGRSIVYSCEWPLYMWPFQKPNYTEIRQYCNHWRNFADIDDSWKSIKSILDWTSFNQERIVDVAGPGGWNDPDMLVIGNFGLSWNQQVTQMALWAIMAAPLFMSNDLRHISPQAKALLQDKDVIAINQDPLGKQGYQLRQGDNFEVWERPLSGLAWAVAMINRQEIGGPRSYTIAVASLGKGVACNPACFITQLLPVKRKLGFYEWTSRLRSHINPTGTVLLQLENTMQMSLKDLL
Starred values were filed as active, the others as inactive; ? = inconclusive; / = no result given; & = joins results of further samples. A portion of the library; count on the stated rates, not on these rows.

Each structure is followed by: Rango dissoc inh	Rango complex inh	miR-21 FLuc	GLA inh pH 4.5
- CC(=O)NC(Cc1ccccc1)C(=O)N1CCN(C(=O)c2cccs2)CC1 (stereo unspecified)
    -5%	-8.9%	-5%	4
- CC1CCCC(C)N1C(=O)/C=C/c1ccc(S(=O)(=O)N2CCOCC2)cc1 (stereo unspecified)
    -9%	-3.4%	/	/
- O=C(NCc1nc2ccccc2[nH]1)c1cccc(S(=O)(=O)N2CCCC2)c1
    16%	-0.5%	-5%	3
- O=C(Nc1ccc2nc(-c3ccc4nc[nH]c4c3)[nH]c2c1)c1cccs1
    ?	-0.5%	-3%	?
- CCn1ncc([N+](=O)[O-])c1C(=O)Nc1nc2cccc(C)c2s1
    -7%	-1.2%	7%	3
- Cc1cccc(C)c1NC(=O)c1ccc(N2CCCC2=O)cc1
    -6%	-1.3%	/	/
- CCOc1ccc2[nH]c(=O)c(CN(CC3COCCO3)C(=O)C3CC3)cc2c1 (stereo unspecified)
    -1%	-0.3%	-1%	11
- O=C(O)CCC(=O)Nc1ccccc1C(=O)NCc1ccccc1
    0%	0.1%	0%	-26
- COc1cc(C2NC(=O)c3ccccc3O2)cc(OC)c1OC (stereo unspecified)
    -3%	-1.1%	2%	1
- CC(=O)N=c1sc(S(N)(=O)=O)nn1C
    8%	-0.9%	-1%	1&-1&6
- CC(=O)c1ccc(N2CCN(c3ccc(C(N)=O)cc3[N+](=O)[O-])CC2)cc1
    -22%	-1.7%	-5%	-2
- CC(C)NC(=O)c1ccccc1S(=O)(=O)c1ccccc1C#N
    -15%	?	-4%	-4
- Cc1ccc(NC(=O)Cn2cc3c(n2)CCC(C)C3)cc1 (stereo unspecified)
    2%	-0.4%	-5%	13
- CCOC(=O)c1ccc(NC(=O)COc2ccccc2OC)cc1
    -2%	-0.2%	-12%	3
- CC(C)(C)C(=O)C(CO)(Oc1ccc(Cl)cc1)n1cncn1 (stereo unspecified)
    0%	?	-8%	12
- CCOC(=O)C1(Cc2ccc(OC)cc2)CCN(C(=O)CCc2cnccn2)CC1
    1%	-0.3%	3%	0
- CCCCOC(=O)NC1CCc2cc(OC)c(OC)c(OC)c2-c2ccc(SC)c(=O)cc21 (stereo unspecified)
    -24%	-2.6%	/	/
- Cc1ccc(NC(=O)Cc2nnc(SCC(=O)c3ccc(Br)cc3)n2C)cc1Cl
    /	/	0%	-8
- CCOC(=O)N1CCC(N2Cc3cccc(C(=O)NCc4ccc5c(c4)OCO5)c3C2=O)CC1
    -18%	-4.6%	2%	-1
- Cc1ccc2nc(NCc3ccccc3)c(C=O)c(=O)n2c1
    -23%	-4.0%	2%	8
- CCNC(=O)/C(C#N)=C/c1c(N2CCCCCC2)nc2ccccn2c1=O
    3%	-0.7%	1%	/
- O=C(N/N=C/c1ccc(OCc2ccccc2)cc1)c1cc[n+](Cc2ccccc2)cc1
    31%	-1.0%	-46%	-5
- Nc1nc(-c2ccc(Cl)cc2)cn1N
    ?	?	-2%	-7
- O=C(Cc1ccc(Cl)cc1)NC1CCCCCC1
    -7%	-4.6%	-45%	/
- Cc1cc(-c2ccc(C)c(S(=O)(=O)NCCC(C)N3CCCCCC3)c2)on1 (stereo unspecified)
    -10%	-1.6%	-6%	/
- O=C(N/N=C/c1cccc(C(F)(F)F)c1)c1ccccc1O
    -13%	0.0%	-31%	10
- Cc1[nH]nc(SCC(=O)NCc2ccc(F)cc2)c1[N+](=O)[O-]
    29%	-1.6%	-9%	1
- COc1cc(Cl)c([C@@H]2C[C@H]3CN(c4ccccc4)C(=O)[C@]34CCCN24)cc1OC
    -1%	0.4%	0%	-5
- COc1ccc(CNC(=O)C2CC(c3cc(C(F)(F)F)cc(C(F)(F)F)c3)=NO2)cc1 (stereo unspecified)
    -6%	0.4%	6%	4
- O=C(COC(=O)COc1ccc(Cl)cc1)NCCCc1ccccc1
    3%	0.8%	/	/
- O=C(NC(=S)N1CCc2ccccc21)c1ccco1
    22%	-1.7%	-9%	7
- Cc1ccc(C)c(NS(=O)(=O)c2c(C)[nH]c(C)c2C(=O)N2CCCCC2)c1
    1%	-0.8%	-1%	/
- CCSc1nc2c(c(=O)[nH]c(=O)n2C)n1CC(O)COc1ccccc1C (stereo unspecified)
    -1%	-3.1%	14%	1
- N#C/C(=C\c1ccc(N2CCOCC2)o1)C(=O)Nc1ccc(O)cc1
    ?	?	-31%	-9
- O=C(NNc1c2ccccc2nc2ccccc12)c1ccccc1O
    -7%	-4.7%	10%	5
- COc1ccc(OCc2nnc(SCC(=O)N3CCCC3)o2)cc1
    -2%	1.9%	0%	/
- Cc1ccc(OCCNc2ccc(S(=O)(=O)N3CCCC3)cn2)cc1
    7%	0.9%	/	/
- COc1ccc2sc(/C=C/c3ccccc3O)[n+](C)c2c1
    -8%	?	-8%	-2
- Cc1nn(-c2ncccn2)c2c1C(=O)CC(C)(C)C2Br (stereo unspecified)
    -7%	-3.7%	/	/
- CCCN1CCN(C(=O)CCS(=O)(=O)c2cc3c(cc2Cl)NC(=O)CO3)CC1
    8%	-0.9%	-3%	/
- COC(=O)CN(c1ccc(OC)c(OC)c1)S(C)(=O)=O
    -4%	3.8%	-3%	-9
- Cc1cc(C)n(/C(=C\N(C)C)C(=O)c2cccc([N+](=O)[O-])c2)n1
    19%	-0.5%	0%	/
- CCCOc1ccc(N2C(=O)CC(N3CCN(CCN=CC4=C(O)CC(C)(C)CC4=O)CC3)C2=O)cc1 (stereo unspecified)
    3%	-3.3%	0%	6
- Cc1ccc(C(=O)N/C(=C\c2cccs2)c2nc3ccccc3[nH]2)cc1
    -15%	?	-8%	-1
- COc1ccc2c(c1)CCc1c-2n[nH]c1C(=O)O
    -5%	-1.1%	2%	-10
- Cc1snc(S(=O)(=O)Cc2ccccc2Cl)c1C#N
    -8%	2.3%	9%	4
- CN1CCCN(Cc2ccccc2C(F)(F)F)CC1
    -13%	-0.4%	-9%	5
- CCCN1CCn2c3c(c4cc(Br)ccc42)CCCC31 (stereo unspecified)
    10%	0.2%	-21%	/
- O=C(N/N=C/c1cccnc1)c1cccc(Cl)c1
    -21%	?	-14%	/
- C/C(=N/NC(=O)CNC(=O)c1cccnc1)c1ccc(Cl)c(Cl)c1
    0%	4.3%	-6%	/
- CSc1nsc(SC)c1NC(=O)Nc1ccccc1C
    9%	6.7%	-4%	11
- COc1ccccc1Nc1nc2ccc(C)cc2cc1C#N
    -12%	?	-1%	1
- CCOC(=O)N1CCN(C(=O)C2CCCN(c3ncnc4c3sc3cccc(F)c34)C2)CC1 (stereo unspecified)
    0%	2.9%	/	/
- O=C(NCC1COc2ccccc2O1)Nc1ccccc1F (stereo unspecified)
    -4%	-3.2%	-22%	-4
- CN(C(=O)c1ccccc1NC(=O)C(F)(F)F)c1ccccc1
    8%	-3.1%	0%	-1
- Cn1cccc1Cc1nnc(SCC(=O)N2CCOCC2)n1-c1ccc(F)cc1
    23%	3.3%	-7%	-2
- CCOC(=O)c1sc2nc(-c3cccnc3)ccc2c1N
    ?	?	-69%	-4
- Cc1nc(-c2ccccc2)sc1C(N)=O
    2%	-0.5%	-26%	-4
- CCc1c(C)c2cc(Cl)c(O)c(CN3CCCCC3)c2oc1=O
    ?	?	-7%	?
- O=c1c(C=NCc2ccccc2)c(NCc2ccccc2)nc2ccccn12
    2%	1.3%	-24%	2

(continued)
Each structure is followed by: Rango dissoc inh	Rango complex inh	miR-21 FLuc	GLA inh pH 4.5
- CCOC(=O)C(C)Sc1nnc(-c2ccccc2O)n1Cc1ccccc1 (stereo unspecified)
    24%	-2.4%	2%	1
- O=C1CN(C(=O)c2ccccc2F)C(c2ccc(F)cc2)c2cc(Br)ccc2N1 (stereo unspecified)
    7%	-0.4%	4%	/
- O=C(Cc1ccccc1Cl)Nc1cccnc1
    6%	-4.1%	-2%	6
- CNc1snc(C)c1C(=O)OCC(=O)c1ccc(Cl)cc1
    -18%	1.0%	/	/
- COc1ccc(-n2ncc3c2CC(C)(C)CC3NC(=O)CCN2CCCC2=O)cc1 (stereo unspecified)
    17%	4.0%	2%	/
- O=C(COC(=O)c1ccccc1)NC1CCCC1
    7%	-0.6%	-6%	/
- CCC1=NN2C(=N)/C(=C\c3cccn3-c3ccc(Br)cc3)C(=O)N=C2S1
    -14%	-0.7%	0%	-2
- Clc1ccc(OCCn2ccnc2)c(Cl)c1
    -16%	1.8%	-10%	-1
- COCCN(Cc1cn(C)nc1-c1ccc(Oc2ccccc2)cc1)C(C)C
    8%	4.9%	-2%	/
- O=C(CC1CCS(=O)(=O)C1)NC1CCCCC1 (stereo unspecified)
    -12%	-0.7%	-3%	3
- Cc1cc2cc(CNC(=O)c3ccc4c(c3)OCO4)ccc2[nH]1
    -3%	?	-36%	-5
- COc1ccc(NS(=O)(=O)c2ccc(NC(=O)CCNS(=O)(=O)c3ccc(C)cc3)cc2)cc1
    13%	0.9%	-2%	-5
- O=c1cc(CN2CCN(CCO)CC2)c2cc3c(cc2o1)CCC3
    3%	0.0%	-13%	-5
- CCOc1ccc(NS(=O)(=O)c2cc(C(=O)N3CCCC3)ccc2Cl)cc1
    -23%	1.1%	/	/
- O=c1[nH]nc(N2CCOCC2)c(=O)[nH]1
    -1%	-3.7%	-5%	-7
- COc1ccc(CN2CCn3ncc(C(=O)Nc4cccc(C)c4)c3C2=O)cc1
    18%	-0.4%	-12%	5
- COC(=O)NC(Nc1sc2c(c1C(N)=O)CCCC2)(C(=O)OC)C(F)(F)F (stereo unspecified)
    -4%	3.0%	-5%	8
- CS(=O)(=O)N1CCN(CC(=O)NC2CCCC2)CC1
    2%	0.0%	-5%	/
- O=C(/C=C/c1ccc(Cl)c([N+](=O)[O-])c1)NCc1cccnc1
    12%	1.0%	/	/
- CCOc1ccc(C(C)(C)C)cc1S(=O)(=O)n1nc(C)cc1C
    10%	0.1%	-10%	-6
- CCOC(=O)c1nc(Nc2cc(C)cc(C)c2)c2ccccc2n1
    -8%	-1.9%	-4%	-12
- CCN1CCN(C(=S)Nc2cccc(C(F)(F)F)c2)CC1
    11%	-0.7%	-5%	-7
- COC(=O)C(Cc1ccc(OC(=O)c2ccc(C)cc2)cc1)N1Cc2ccccc2C1=O (stereo unspecified)
    ?	0.1%	-42%	-3
- COc1cc(/C=N/n2c(-c3ccccc3)n[nH]c2=S)ccc1O
    3%	0.2%	1%	-13
- Cc1cc(C)c(C(=O)N2CCCC(Nc3ccc(C)c(C)c3)C2)o1 (stereo unspecified)
    10%	-0.8%	2%	/
- COc1cc(C)cc(OC)c1OCC(=O)Nc1cc(C)on1
    1%	0.1%	/	/
- Cc1cnc(C(=O)Nc2ccc(F)cc2)cn1
    20%	-5.9%	-43%	10

6 neighbouring entries already listed, quoted:
Each structure is followed by: Rango dissoc inh	Rango complex inh	miR-21 FLuc	GLA inh pH 4.5
- CCOC(=O)C(C)Sc1nnc(-c2ccccc2O)n1Cc1ccccc1 (stereo unspecified)
    24%	-2.4%	2%	1
- O=C1CN(C(=O)c2ccccc2F)C(c2ccc(F)cc2)c2cc(Br)ccc2N1 (stereo unspecified)
    7%	-0.4%	4%	/
- O=C(Cc1ccccc1Cl)Nc1cccnc1
    6%	-4.1%	-2%	6
- CNc1snc(C)c1C(=O)OCC(=O)c1ccc(Cl)cc1
    -18%	1.0%	/	/
- COc1ccc(-n2ncc3c2CC(C)(C)CC3NC(=O)CCN2CCCC2=O)cc1 (stereo unspecified)
    17%	4.0%	2%	/
- O=C(COC(=O)c1ccccc1)NC1CCCC1
    7%	-0.6%	-6%	/

Limited to Rango dissoc inh (2 entries from above):
Molecule | Rango dissoc inh
CS(=O)(=O)N1CCN(CC(=O)NC2CCCC2)CC1 | 2%
O=C1CN(C(=O)c2ccccc2F)C(c2ccc(F)cc2)c2cc(Br)ccc2N1 (stereo unspecified) | 7%

Source: PubChem
